ugtP null kill: growth inhibition of ugtP-null S. aureus, primary screen, RN4220 ugtP deletion, OD600 | 16 h; some inactives read as strong as hits | growth inhibition, % (concentration not given with the values) | 0.54% of 330,000 active;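 active means z-score under -3 and OD600 up to 0.15 on both plates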;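 further: plate controls were untreated wells for no effect and antibiotic for full effect; wells of about 80 µL received 100 nL stock; the first replicate is given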
BJeLR lethal: MLPCN primary cell-based screen for lethality selective to Ras in HRASV12 cells | BJeLR (HRASV12) viability, CellTiter-Glo ATP luminescence, 48 h; reference of the scale not given here | inhibition, % (no concentration beside the values) | 0.17% of 300,000 active;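 active means replicate mean above 50%; inconclusive means above 50% but judged a plate artefact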;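 further: 50 nL library stock added to about 25 µL; numbers are from one replicate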
Sa RN4220 lethal: growth inhibition of S. aureus RN4220, primary screen, OD600; 16 h; 0.33% of 330,000 active; inhibition, % (no concentration beside the values);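 active means z-score of -3 or lower and OD600 up to 0.18 on both plates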;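 further: plate controls were untreated cells for no effect and reference antibiotic for full effect; stock transfer was 100 nL into about 80 µL; one replicate is shown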
PrP UTR inh: inhibition of PrP 5' UTR reporter expression; 0.35% of 340,000 active; cell-based PrP 5' UTR mRNA reporter, plate reader; inhibition, % (concentration not given with the values); AID 488862, 2010;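 active means every replicate at 50% or more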;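 further: 0 = median of the neutral control wells; tested in H4 reporter cells; numbers are from one replicate; inactives centre near -14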
Mtb hypoxia inh: PubChem AID 1159583; M. tuberculosis hypoxia-regulated fluorescent reporter, fluorescence; fluorescence inhibition, % (concentration not given with the values); 0.1% of 300,000 active;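 active means 35 to 45% if threefold the growth effect, above 45% if 1.5-fold the growth effect; inactive means the rest, general growth blockers included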;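 further: wells of about 50 µL received 100 nL stock; 0% = vehicle wells and 100% = reference inhibitor wells; whole bacteria with a GFP reporter of the hypoxia response; strong numbers were not always called active; many hits fall short of the cut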
Autofluor counter: counter-screen for toxin protease inhibitors: compound fluorescence; fluorescence intensity (test concentration not listed); compound autofluorescence counterscreen, microsphere flow cytometry; hits give high values; AID 624483; 3.1% of 360,000 active;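 active means at least 3 SD above the mean of all compounds, about 16000 in these data; inconclusive means too few beads counted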;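 further: 100 nL of 1 mM stock went into each well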
Mtb hypoxia inh growth: further read-out of Mtb hypoxia inh, marked with its call; growth inhibition, %; measured here: M. tuberculosis growth (absorbance);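 0% = vehicle and 100% = reference antibiotic; read after six days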
Active calls of the source: *; ? = inconclusive; . = no result given; ! = a repeat was not active. Compounds were not picked by outcome; about 3.9% have a hit in one of these screens.

SMILES	ugtP null kill	BJeLR lethal	Sa RN4220 lethal	PrP UTR inh	Mtb hypoxia inh	Mtb hypoxia inh growth	Autofluor counter
COc1ccc(S(=O)(=O)NC2CCSc3ccccc32)cc1NC(C)=O (stereo unspecified)	3	-1	3.3	-3	14	10	6492
Cc1ccc(SCC(=O)NCc2cccnc2)cc1	0	-5	0.8	-14	2	6	4473
COc1ccc(CC(=O)NCc2n[nH]c(=S)n2-c2cccc(C)c2)cc1	9	4	2.3	-9	9	13	4368
Cc1ccc(NC(=O)COC(=O)CC2SC(N3CCCC3)=NC2=O)cc1 (stereo unspecified)	-1	.	3.8	-16	4	-4	8825
COCCSc1ccccc1C(=O)Nc1ccc(Br)cc1	13	-13	9.6	-16	11	6	4266
COc1ccc(NC(=O)C2CCN(c3ncnc4c3nc3n4CCCCC3)CC2)c(OC)c1	-1	2	-0.5	-9	-1	12	5416
Cc1ccc(NC2CCCN(C(=O)c3cn4cccc(C)c4n3)C2)cc1C (stereo unspecified)	6	3	4.9	-8	-2	-3	5127
CCCSc1nnc(NC(=O)c2nc(SC)ncc2Cl)s1	-2	-10	11	-7	-7	9	19506*
COc1cccc(-n2nnc3c(=O)n(Cc4ccc(Br)cc4)cnc32)c1	-9	-2	2.6	-19	0	-3	21527*
O=C(c1ccc2c(c1)OCO2)C1CCCN(C(=O)NCc2ccccc2)C1 (stereo unspecified)	3	2	3.4	-33	4	11	2234
CC(=O)Nc1cccc(-c2csc(Nc3cc(C)ccn3)n2)c1	-22	2	1.5	-195	-4	2	8374
COc1ccc(/C=C2\SC(=Nc3ccccc3OC)NC2=O)cc1	-21	1	2.8	-13	7	9	4400
CCO[C@H]1OC(C(=O)N2CCCCCCC2)=C[C@@H](c2ccccc2)[C@@H]1CCCO	-10	9	-7.9	-17	10	9	4105
Cc1ccc2[nH]c(C(=O)N3CCN(C=O)CC3)cc2c1	2	-1	-0.7	-13	-1	12	4020
Oc1cc(-n2cccn2)c(O)cc1-n1cccn1	3	6	5.2	-32	15	9	3669
C[N+]1(CCCOC(=O)C2(c3ccccc3)CCCC2)CCOCC1	0	6	7.6	-15	9	7	7455
Cc1ccc(NC(=O)C(C)Sc2nnc(C)n2CC2CCCO2)cc1 (stereo unspecified)	8	-9	5.9	-11	2	-2	5237
O=C(Cn1c(=O)n(CCCC(=O)NC2CCCC2)c(=O)c2ccccc21)NCCC1=CCCCC1	4	1	6.8	-23	.	.	4739
Cc1ccc(OCCCCCCN2CCNCC2)c(Br)c1	38	2	-1.1	9	13	5	3308
O=C1OCCN1C(=O)C1C(c2ccc(F)cc2)C(c2ccc(F)cc2)=NN1c1ccccc1 (stereo unspecified)	12	.	-10	.	1	6	.

Profiles, quoted from the list. Screens in order: ugtP null kill, BJeLR lethal, Sa RN4220 lethal, PrP UTR inh, Mtb hypoxia inh, Mtb hypoxia inh growth, Autofluor counter
Shown for O=C1OCCN1C(=O)C1C(c2ccc(F)cc2)C(c2ccc(F)cc2)=NN1c1ccccc1 (stereo unspecified) : 12, ., -10, ., 1, 6, .
Shown for CC(=O)Nc1cccc(-c2csc(Nc3cc(C)ccn3)n2)c1 : -22, 2, 1.5, -195, -4, 2, 8374
Shown for Cc1ccc(OCCCCCCN2CCNCC2)c(Br)c1 : 38, 2, -1.1, 9, 13, 5, 3308

Remaining list, next part:
SMILES	ugtP null kill	BJeLR lethal	Sa RN4220 lethal	PrP UTR inh	Mtb hypoxia inh	Mtb hypoxia inh growth	Autofluor counter
CCOC(=O)c1c(C)[nH]c(C(=O)COC(=O)COc2ccc(OC)cc2)c1C	-1	5	3.6	-4	8	6	2523
COc1ccc(S(=O)(=O)N2CCC(C(=O)NCCc3ccccc3)CC2)cc1	9	-7	0.6	-34	13	17	3555
Cc1n[nH]c(C)c1S(=O)(=O)Nc1ccc2c(c1)OCCO2	3	1	-1.5	-2	.	.	4747
CCC(Oc1ccccc1)C(=O)Nc1ccccc1C(=O)N1CCOCC1 (stereo unspecified)	2	2	1.7	-3	7	9	5932
CCN1C(=O)C2C(c3ccc(SC4CCCCC4)cc3)N[C@@](CC(C)C)(C(=O)OC)C2C1=O (stereo partly specified)	3	.	-0.3	.	4	8	.
Cc1ccnc(NC(=O)CCCOc2cc(=O)n(C)c3ccccc23)c1	4	12	3.5	-20	4	-2	21080*!
CCOCCCNC(=O)CC1Oc2ccc(C)cc2NC1=O (stereo unspecified)	15	-3	-0.1	-6	.	.	5415
CC1CCN(S(=O)(=O)c2ccc(C(=O)Nc3ccccn3)cc2)CC1	10	0	-0.8	-40	5	-1	6116
S=C(Nc1cccc(Cl)c1)N1CCN(c2ccccn2)CC1	3	-1	-2.7	-6	-2	7	4676
COc1ccc(CC(=O)N(CCC2=CCCCC2)c2c(N)n(Cc3ccccc3)c(=O)[nH]c2=O)cc1OC	3	-3	2.6	-2	2	9	5872
Cc1ccc(-n2nc(C)c3c(C)c(CCC(=O)NCCCOC(C)C)c(C)nc32)cc1	-1	11	2.7	-2	-4	-1	2986
CCOC(=O)C(O)(c1ccc(N(CC)C(=O)OC)cc1)C(F)(F)F (stereo unspecified)	0	.	0.0	-7	1	7	5823
Cc1cccc(OCC(=O)O/N=C(\N)c2ccc(Cl)cc2)c1	3	-5	8.4	-20	7	0	5761
CN1/C(=C\C(=O)COC(=O)c2ccc(O)c(O)c2)C(C)(C)c2ccccc21	0	12	4.2	.	9	0	.
COc1ccc(OCC(=O)NC(=S)NNC(=O)COc2ccc(Br)cc2Cl)cc1	-2	-1	9.1	-24	6	1	4377
C=CCN(C(=O)CNS(=O)(=O)c1ccccc1)C(C(=O)NCCOC)c1cccnc1 (stereo unspecified)	-1	-7	2.2	-10	-9	9	3708
CN(CCCC1CCCC1)C(=O)CCc1nnc(-c2ccccc2)o1	5	3	11	-85	10	1	4159
CSc1nnc(C)c(=O)[nH]1	-2	7	0.5	-17	1	3	25237*
COc1ccc(-c2cn(Cc3ccc(C(N)=O)cc3)c(-c3ccncc3)n2)cc1	10	.	8.7	-41	16	8	2844
COc1ccc(-c2cc(=O)oc3cc(OC(C)C(=O)NCC4CCC(C(=O)O)CC4)ccc23)cc1 (stereo unspecified)	9	-8	-0.9	-12	.	.	6033
CCCCNC(=S)NNC(=O)CCn1cc(C)cn1	.	8	.	-11	.	.	2574
COc1cccc(NC(=O)CN(c2cccc(F)c2)S(C)(=O)=O)c1	6	6	2.0	-14	12	1	12488
Cc1ccc([N+](=O)[O-])cc1NC(=O)Cc1ccc(F)cc1	1	-20	3.7	-15	10	8	3059
CCc1ccc(-c2cc(C)no2)cc1S(=O)(=O)N1CCN(c2cccc(C)c2C)CC1	1	6	1.8	-27	5	1	5210
COCCn1c(SCc2cnc(-c3ccccc3)s2)nnc1-c1ccncc1	5	-1	1.9	-4	15	11	3673
COC(=O)c1ccccc1NC(=O)CN1CCCCC1	6	4	2.8	2	-7	9	2005
C/C(=N\NS(=O)(=O)c1ccc(C)cc1)c1ccc(C)o1	.	-7	.	-14	.	.	3508
Cc1nn(Cc2c(F)c(F)c(F)c(F)c2F)c(C)c1NC(=O)c1ccc(COc2ccccc2Cl)o1	-21	-11	-0.4	-13	1	4	19196*
CCn1nc(C)cc1C(=O)N1CCCC(C(=O)c2ccc(Oc3ccccc3)cc2)C1 (stereo unspecified)	2	1	0.6	-1	7	7	5830
COc1ccc(-c2ccc(SCC(=O)Nc3cccc(C(C)=O)c3)nn2)cc1OC	13	-25	17	-40	11	9	3189
NS(=O)(=O)c1ccc(CCNCC(=O)N2CCC(Cc3ccccc3)CC2)cc1	-12	6	1.7	-8	1	-2	4911
COc1ccc(C2CC(c3ccccc3)Nc3nc(NC(=O)c4ccco4)nn32)cc1 (stereo unspecified)	2	5	19	3	-4	11	3116
COc1cccc2c1OC1(C)CC2N(C(=O)c2ccco2)C(=S)N1c1ccc(F)cc1 (stereo unspecified)	-3	0	1.9	-26	4	6	4883
CC1CCCC(C)N1C(=O)CSc1nc2c(c(=O)n(C)c(=O)n2C)n1C (stereo unspecified)	10	1	-1.9	10	0	1	4602
O=C(Cn1c(CO)nc2ccccc21)NCc1ccc2c(c1)OCO2	16	-1	3.4	0	4	11	6189
CCCCC1CCC(C(=O)OCC(=O)N(CCOC)c2c(N)n(Cc3ccccc3)c(=O)[nH]c2=O)CC1 (stereo unspecified)	4	3	2.3	6	5	11	?
Cc1cccc(/C=N/NC(=O)C2CCCNC2=O)c1 (stereo unspecified)	.	16	.	-18	.	.	2451
C/C(=N/Nc1nc(C)cc(-c2ccccc2)n1)c1ccco1	.	1	.	-29	.	.	4727
O=C(c1cccnc1)N(Cc1ccccc1)c1ccccc1	1	-12	1.6	-18	-2	6	10737

Molecules from the list above that have an aryl thioether with sulfur outside any ring:
SMILES	ugtP null kill	BJeLR lethal	Sa RN4220 lethal	PrP UTR inh	Mtb hypoxia inh	Mtb hypoxia inh growth	Autofluor counter
Cc1ccc(SCC(=O)NCc2cccnc2)cc1	0	-5	0.8	-14	2	6	4473
COCCSc1ccccc1C(=O)Nc1ccc(Br)cc1	13	-13	9.6	-16	11	6	4266
CCCSc1nnc(NC(=O)c2nc(SC)ncc2Cl)s1	-2	-10	11	-7	-7	9	19506*
Cc1ccc(NC(=O)C(C)Sc2nnc(C)n2CC2CCCO2)cc1 (stereo unspecified)	8	-9	5.9	-11	2	-2	5237
CCN1C(=O)C2C(c3ccc(SC4CCCCC4)cc3)N[C@@](CC(C)C)(C(=O)OC)C2C1=O (stereo partly specified)	3	.	-0.3	.	4	8	.
CSc1nnc(C)c(=O)[nH]1	-2	7	0.5	-17	1	3	25237*
COCCn1c(SCc2cnc(-c3ccccc3)s2)nnc1-c1ccncc1	5	-1	1.9	-4	15	11	3673
COc1ccc(-c2ccc(SCC(=O)Nc3cccc(C(C)=O)c3)nn2)cc1OC	13	-25	17	-40	11	9	3189
CC1CCCC(C)N1C(=O)CSc1nc2c(c(=O)n(C)c(=O)n2C)n1C (stereo unspecified)	10	1	-1.9	10	0	1	4602

Compound activity from PubChem BioAssay.
